MT1-MMP act inh: blocks activation of human MT1-MMP | P50281 | HT1080 RFP-PRO-GFP cells, GFP/RFP ratio fluorescence, overnight; percent of plate control window, DMSO zero | GFP/RFP ratio change, % at 20 µM | hit rate 0.061% among 360,000 | AID 651647;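 active = GFP/RFP ratio change of at least 30% with cell ATP level not reduced by more than half and red fluorescence within 50% of control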; note: strong numbers were not always called active
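Assay system: RFP-PRO-GFP reporter HT1080 cells; read-out basis: GFP/RFP fluorescence ratio; benchmarks: DMSO wells and RFP-L50D-GFP cells; doses: 20 µM single dose, 1% DMSO; schedule: overnight cell settling, then overnight compound exposure, 37 °C, 5% CO2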
UUG fidelity: yeast start codon fidelity modulation; AID 602363; activity score, % at 18.7 µM; hit rate 0.13% among 350,000; S. cerevisiae UUG-firefly luciferase reporter, luminescence/redox ratio;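 active = replicate mean at a twofold rise or more, about +100% in these data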;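 note: firefly luciferase made from a UUG start codon reports start codon fidelity; reporter light over untreated wells divided by growth signal over untreated wells; some hits fall short of that in this replicate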
CSC inhib: blocks cancer stem cells | inhibition, % at 7.5 µM | cancer stem cell-like cells viability, luminescence | hit rate 1.1% among 300,000 | AID 2717;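 active = mean at 75% or more and at least half the replicates too; tested in HMLE shEcad cells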;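 note: 0% = median of negative and 100% = median of positive control wells; the first replicate is given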
PABP FP inh: PABP-poly(A) binding inhibition; P11940; PABP-poly(A) RNA binding, fluorescence polarization; inhibition, % at 35 µM; hit rate 1% among 290,000;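 active = 50% or more with normal probe brightness, or confirmed in later tests; about a fifth of its hits are not listed in these tables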;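 note: calls also rest on retests at 20 µM and on dose response follow-up; controls were probe without protein and protein plus probe with vehicle; some compounds called inactive have numbers as strong as hits; many hits fall short of the cut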
eIF4H FP inh: inhibitors of RNA binding by human eIF4H | Q15056 | eIF4H fluorescence polarization binding assay | inhibition, % at 35 µM | hit rate 0.94% among 290,000 | AID 2012;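 active = 50% or more with normal probe brightness, or confirmed in later tests; about a fifth of its hits are not listed in these tables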;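 note: calls also rest on retests at 20 µM and on dose response follow-up; 0% = protein and probe with vehicle and 100% = probe without protein; strong numbers were not always called active; many hits fall short of the cut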
Rce1 inh: yeast Ras-converting enzyme inhibition; hit rate 0.27% among 290,000; calls only; yeast membranes, quenched prenylated peptide cleavage fluorescence; Q03530; AID 2563;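 active = fall in fluorescence gain of 50% or more versus controls, with final raw signal at or below 3038400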;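 note: plate controls were neutral control wells for no effect and wells lacking membranes for full effect; tested at 10 µM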
Target sequence (Q03530 whole entry, looked up): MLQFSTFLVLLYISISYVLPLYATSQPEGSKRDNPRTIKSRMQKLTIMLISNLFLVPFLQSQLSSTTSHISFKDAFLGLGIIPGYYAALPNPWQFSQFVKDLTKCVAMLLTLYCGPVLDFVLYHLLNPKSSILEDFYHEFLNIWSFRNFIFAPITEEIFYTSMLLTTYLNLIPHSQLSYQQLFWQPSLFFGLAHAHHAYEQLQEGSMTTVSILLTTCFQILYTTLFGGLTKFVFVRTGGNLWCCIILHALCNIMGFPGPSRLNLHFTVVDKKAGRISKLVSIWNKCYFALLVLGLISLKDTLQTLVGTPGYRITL
HIV Env fusion: HIV envelope-mediated fusion inhibition; HeLa-JRFL Env/CEM21 cell fusion, luciferase; inhibition, % at 12.3 µM; hit rate 1.1% among 360,000; AID 651610;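 active = mean replicate inhibition score of at least 50 and every replicate individually at or above 50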;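 note: 0% = plate neutral controls and 100% = maraviroc near 300 nM; one replicate is shown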
MT1-MMP act inh RFP: also measured in MT1-MMP act inh; calls as there; RFP signal change, %; measured here: RFP expression control read;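 0 = vehicle wells; hits needed this value within 50% of zero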
Numbers without * were called inactive; i = inactive; . = not tested or not shown.

SMILES	MT1-MMP act inh	MT1-MMP act inh RFP	UUG fidelity	CSC inhib	PABP FP inh	eIF4H FP inh	Rce1 inh	HIV Env fusion
Cc1nn(CC(O)CN2c3ccccc3Sc3ccccc32)c(C)c1Br (stereo unspecified)	2.6	0.3	-16.1	31.1	-7.0	1.0	i	.
CCCCOc1c(Cl)cc(C(=O)N(C)CC(=O)Nc2ccc(N3CCOCC3)cc2)cc1OCC	1.9	-4.9	-10.9	.	-9.6	-10.9	i	.
COc1ccc(N(CC(=O)NC(C)(C)C)C(=O)c2ccco2)cc1	0.8	5.4	1.0	2.1	0.2	3.2	i	-42.4
O=C(N/N=C/c1cccnc1)c1cc(-c2ccc(Cl)cc2)nc2ccccc12	0.9	-4.0	-12.0	46.8	.	.	.	8.5
O=C1CCC(C(=O)N2CCCC2)CN1CCc1cccc(F)c1 (stereo unspecified)	2.0	3.2	-9.9	-6.8	-9.3	-10.5	i	3.9
O=C(Oc1ccccc1C(=S)N1CCCCC1)c1cc([N+](=O)[O-])cc([N+](=O)[O-])c1	3.1	4.1	-28.8	-12.7	6.8	-4.5	i	.
COc1ccc(-n2c3c(cc(C(=O)N4CCCCC4)c2=O)C(=O)CC(C)(C)C3)cc1	3.9	6.3	-1.1	-8.8	2.4	3.0	i	-3.9
COC(=O)c1ccccc1NC(=S)NC(=O)C1CCCCC1	-1.6	-3.8	.	0.1	0.3	6.7	i	-15.2
Cc1ccc(C(=O)Nc2c3c(nn2C(C)(C)C)CS(=O)(=O)C3)cc1[N+](=O)[O-]	6.0	4.2	-7.1	-8.2	8.0	-2.5	i	4.2
CCOC(=O)/C=C/C(=O)OCC(=O)NCc1ccccc1	-2.7	-0.3	-18.0	26.5	-3.9	6.5	i	15.0
COc1cc(N)ccc1-c1cc2ccccc2oc1=O	3.8	-1.1	4.6	-14.3	3.6	-10.4	i	2.2
NS(=O)(=O)c1ccc(NC(=O)CSc2nc3ccccc3[nH]2)cc1	0.3	2.5	.	-4.9	-8.9	-3.5	i	15.0
O=C(NCCc1ccco1)C(=O)NCC1OCCCN1S(=O)(=O)c1ccc(Cl)cc1 (stereo unspecified)	-2.5	-3.3	1.3	-2.3	-5.8	0.3	i	-7.8
CC(C)NC(=O)N1CCOCCOCCN(C(=O)NC(C)C)CCOCCOCC1	2.4	4.0	-31.8	.	-3.7	-0.4	i	.
Cc1ccc(Cl)c(OC(=O)Cn2cnc3c2c(=O)n(C)c(=O)n3C)c1	2.3	1.5	-7.0	-17.5	-11.6	-4.5	i	18.7
Cc1ccc(-n2nc(C(=O)NN)c(C)c(C#N)c2=O)cc1Cl	3.0	-0.3	-10.7	-14.7	1.5	10.5	i	25.3
Nc1nc(SCc2ccccc2)sc1C(=O)N1CCCCC1	1.4	-1.0	-13.8	.	.	.	.	-11.7
CC(Oc1ccc(Cl)cc1Cl)C(=O)Nc1ccc(OCC(=O)O)cc1 (stereo unspecified)	2.7	2.8	.	-1.2	9.7	8.4	i	1.5
CCOC(=O)Nc1ccccc1C(=O)N1CCOCC1	4.5	-2.4	-5.3	-16.9	-3.3	2.1	i	-34.5
O=C(OCC(=O)N1CCCC1)c1ccc(S(=O)(=O)Nc2ccccc2)cc1	5.0	2.1	-6.5	42.3	-6.7	2.4	i	-5.4
CC(=O)c1cccc(NC(=O)CSc2ccc(-c3ccco3)nn2)c1	0.4	0.4	-15.4	-3.6	14.1	26.0	i	-7.2
Cc1cc(C)cc(N(CC(=O)N2CCC(C)CC2)S(C)(=O)=O)c1	-0.9	1.6	5.4	0.6	1.0	1.7	i	.
c1ccc(-c2csc(N3CCc4ccccc4C3)n2)cc1	-9.1	1.7	-13.7	-4.5	-2.5	3.6	i	.
CCOCCCN(Cc1ccco1)C(=O)c1cc2c(=O)[nH]c3ccc(C)cc3c2s1	2.3	-7.2	-1.7	.	6.0	2.7	i	-130.2
Cc1c(C(=O)n2cnc3ccccc32)cccc1[N+](=O)[O-]	-0.9	2.4	-15.5	-1.3	11.7	-6.1	i	2.1

Two entries from above, comma-delimited.
structure,MT1-MMP act inh,MT1-MMP act inh RFP,UUG fidelity,CSC inhib,PABP FP inh,eIF4H FP inh,Rce1 inh,HIV Env fusion
CCCCOc1c(Cl)cc(C(=O)N(C)CC(=O)Nc2ccc(N3CCOCC3)cc2)cc1OCC,1.9,-4.9,-10.9,.,-9.6,-10.9,i,.
COc1ccc(N(CC(=O)NC(C)(C)C)C(=O)c2ccco2)cc1,0.8,5.4,1.0,2.1,0.2,3.2,i,-42.4

Remaining list, next part:
SMILES	MT1-MMP act inh	MT1-MMP act inh RFP	UUG fidelity	CSC inhib	PABP FP inh	eIF4H FP inh	Rce1 inh	HIV Env fusion
CC1CCN(c2ccc(NC(=O)Cc3ccccc3)cc2)CC1	1.1	-0.2	.	-8.5	5.9	3.3	i	4.7
COc1ccc2oc(C(=O)N(C)CCOc3ccc(Cl)cc3)c(C)c2c1	-0.7	4.2	8.2	7.1	-10.8	-7.4	i	9.5
Cc1noc(C)c1COc1ccc(C(=O)N2CCN(c3cccc(Cl)c3)CC2)cc1	3.0	-3.4	-2.2	.	.	.	.	2.6
S=C(Nc1ccccc1)Nn1cnnc1	-0.9	3.2	-22.8	-9.7	4.7	-5.0	i	-12.1
Cc1ccc(S(=O)(=O)CCc2nc3ccccc3[nH]2)cc1	2.6	-3.8	-11.3	2.2	1.9	7.4	i	1.6
CSc1ccc(CN2CCN(C3CCCC3)C(CCO)C2)cc1 (stereo unspecified)	0.5	0.7	-0.2	27.5	2.0	-4.7	i	6.4
COCCN(C(=S)Nc1c(C)cccc1C)C(C)c1ccco1 (stereo unspecified)	1.0	3.0	-14.3	-16.3	1.5	-10.6	i	-3.7
Cc1ccc(-c2nnc(-n3nc(C)cc3C)c3ccccc23)cc1	4.6	4.4	.	2.0	12.1	-4.7	i	23.2
Cc1noc(/C=C/N(C)C)c1S(=O)(=O)N1CCCC(C(=O)NC2CCCCC2)C1 (stereo unspecified)	-5.6	2.3	-15.4	-5.6	-9.7	1.5	i	.
CCOC(=O)CCSc1nc(-c2ccc3c(c2)OCO3)cc(C(F)(F)F)c1C#N	2.3	4.0	.	10.3	-5.2	-6.2	i	.
COC/C=C/C1=CC2=CC(=O)C(C)(OC(=O)c3cnc4ccccc4n3)C(=O)C2=CN1Cc1ccco1 (stereo unspecified)	3.9	7.1	-10.7	-8.6	.	.	i	13.6
COc1cc(/C=N\NC(=O)C2CC3C=CC2C3)ccc1O (stereo unspecified)	4.8	5.5	.	1.4	-7.6	1.9	i	-89.1
Cc1cc(S(=O)(=O)N(Cc2ccccc2)Cc2ccc(N(C)C)cc2)ccc1-n1cnnn1	-6.1	-9.9	-7.9	-4.4	-8.8	3.5	i	.
COC(=O)CN(c1nc(C)cc(OC)n1)S(=O)(=O)c1ccccc1	3.3	0.4	.	.	6.5	4.9	i	.
COc1ccc(N=Cc2c(O)[nH]c3ccccc23)cc1OC	-15.3	-9.3	17.9	20.6	0.0	-12.6	.	12.7
COc1ccc(C(=O)N2CCc3c([nH]c4ccccc34)C2C(F)(F)F)cc1 (stereo unspecified)	0.2	-4.7	.	1.3	1.6	-3.6	i	16.8
CCOP(=O)(c1c(F)c(F)c(F)c(F)c1F)C1(O)CCCCC1 (stereo unspecified)	2.7	3.0	-5.4	11.0	4.7	5.1	i	.
COC(=O)c1sc2nc(C)cc(-c3ccccc3)c2c1N	-3.6	-0.7	.	-15.8	-1.2	10.4	i	-15.5
O=C(Cn1sc2ccccc2c1=O)Nc1ccc(Br)cc1	0.1	-6.3	-21.2	.	.	.	.	14.7
Cc1cc(/C=C(\C#N)C(=O)OCC(=O)Nc2ccc(OC(F)F)cc2)c(C)n1CC(C)C	5.9	-1.5	-10.2	3.8	-11.6	16.8	i	19.0
CCCNC(=O)c1ccc(N2CCC3(CC2)CC(c2ccc(Cl)cc2)=NO3)c([N+](=O)[O-])c1	2.7	-31.4	-21.5	-14.2	0.4	2.2	i	3.7
COc1cc(CN(CCc2c(C)[nH]c3ccc(C)cc23)C(=S)NC(C)(C)C)cc(OC)c1OC	0.1	-3.1	-24.7	2.4	3.5	-5.8	i	11.6
O=C(O)c1ccc(S(=O)(=O)N2CCC3(CC2)CC(=O)c2ccccc2O3)cc1	4.0	0.6	-7.9	-4.2	.	.	i	10.8
O=C(Nn1cnnc1)c1cc(Cl)cc(Cl)c1	0.9	-0.4	-6.1	-0.2	-1.1	-0.5	i	-8.3
C=CCNC(=S)N/N=C(\C)c1cccnc1	-1.7	-0.3	.	4.0	-9.0	-5.9	.	2.4
The list continues.
SMILES	MT1-MMP act inh	MT1-MMP act inh RFP	UUG fidelity	CSC inhib	PABP FP inh	eIF4H FP inh	Rce1 inh	HIV Env fusion
c1ccc2c(c1)nnn2-c1ncnc2sccc12	-4.1	-1.6	-17.7	5.4	-19.0	-6.2	i	-23.8
CS(=O)(=O)N(CC(=O)N1CCCC1)Cc1ccccc1	2.4	5.6	.	-14.4	-11.0	6.5	i	-6.2
COc1cc(/C=N/NC(=O)c2cccc(C(=O)N/N=C/c3ccc(O)c(OC)c3)n2)ccc1O	1.9	6.5	-5.4	11.2	-0.1	-2.4	i	3.5
COc1ccc(CNC(=O)C(CC(C)C)NC(=O)c2ccccc2C)cc1 (stereo unspecified)	0.6	0.4	-6.8	-7.4	14.7	-14.9	i	-25.1
COc1cc(-c2nnc(COc3ccc4ccccc4c3)o2)cc(OC)c1OC	5.1	0.3	-17.9	28.5	-3.0	-1.8	i	-1.7
CCCCOC(=O)/C=C/c1c(C)[nH]c(=O)[nH]c1=O	6.4	8.5	.	-8.7	17.1	-4.5	i	3.2
Cc1cc2c(c(C)c1Cl)C(c1ccc3c(c1)OCO3)CC(=O)O2 (stereo unspecified)	2.6	2.5	-24.3	.	.	.	.	7.5
C=CCn1cnc2scc(-c3ccc(OC)cc3)c2c1=O	-1.2	1.7	-7.8	-6.7	-10.4	-1.6	i	16.5

Some entries already given, showing only eIF4H FP inh and MT1-MMP act inh:
canonical_smiles	eIF4H FP inh	MT1-MMP act inh
COC/C=C/C1=CC2=CC(=O)C(C)(OC(=O)c3cnc4ccccc4n3)C(=O)C2=CN1Cc1ccco1 (stereo unspecified)	.	3.9
COc1cc(/C=N\NC(=O)C2CC3C=CC2C3)ccc1O (stereo unspecified)	1.9	4.8
Cc1cc(S(=O)(=O)N(Cc2ccccc2)Cc2ccc(N(C)C)cc2)ccc1-n1cnnn1	3.5	-6.1
COC(=O)CN(c1nc(C)cc(OC)n1)S(=O)(=O)c1ccccc1	4.9	3.3
COc1ccc(N=Cc2c(O)[nH]c3ccccc23)cc1OC	-12.6	-15.3
COc1ccc(C(=O)N2CCc3c([nH]c4ccccc34)C2C(F)(F)F)cc1 (stereo unspecified)	-3.6	0.2
CCOP(=O)(c1c(F)c(F)c(F)c(F)c1F)C1(O)CCCCC1 (stereo unspecified)	5.1	2.7

Bioassay records: PubChem BioAssay, several laboratories
